# High-throughput results as filed in PubChem BioAssay.
# HPGD block – qHTS Assay for Inhibitors of HPGD (15-Hydroxyprostaglandin Dehydrogenase). Potency, µM, without a hit: at the highest dose activity change, negative = inhibition, hits mostly inhibitors. purified HPGD, NADH fluorescence kinetic, PGE2 substrate. 4.3% of 150,000 active. AID 894, 2007. 15-hydroxyprostaglandin dehydrogenase [NAD(+)] (Homo sapiens), P15428; active = well fitted inhibition curve with a large enough effect (not every such curve was filed as active); inconclusive = small, poorly fitted or top-dose-only effect, or another doubt; inactive = no such curve, though single readings can be large or run the other way;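 also: top concentration of the series not given in the record; plate controls included wells without enzyme; inactives centre near -10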
# Target sequence (P15428 whole entry, looked up): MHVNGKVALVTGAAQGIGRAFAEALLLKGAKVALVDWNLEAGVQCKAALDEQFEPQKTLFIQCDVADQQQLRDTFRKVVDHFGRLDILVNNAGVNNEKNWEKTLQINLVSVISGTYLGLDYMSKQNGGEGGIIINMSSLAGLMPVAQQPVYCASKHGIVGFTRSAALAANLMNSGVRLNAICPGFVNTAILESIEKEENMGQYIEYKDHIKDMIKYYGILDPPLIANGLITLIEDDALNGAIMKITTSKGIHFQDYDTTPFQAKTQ
#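 20 nM HPGD preincubated 15 min at room temperature with compound in 50 mM Tris-HCl pH 8, 0.01% Tween 20. Started with 1 mM NAD+ and 30 uM prostaglandin E2; NADH fluorescence (360/450 nm) read 5 times over 30-s intervals, last minus first.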
# An asterisk follows results filed as active; u = inconclusive; & = joins results of further samples. % is scaled to controls: 0 for no effect and ±100 for the full control effect; potency is read from the fitted curve at half-maximal effect. The list is partial; the hit share may differ from the screen's.
# Start of the data: the first 7 entries (preview)
SMILES,HPGD block
Cc1c(C#N)c2ccccc2n1CC(=O)N1CCc2ccccc2C1,-15%
O=C(CCN1C(=O)/C(=C\c2cccs2)SC1=S)Nc1nccs1,-3%
CCCCn1c(SCC(=O)N2CCOCC2)nnc1-c1cccs1,-15%
O=c1[nH]c(SCc2cccc(F)c2)nc2c1CCCC2,7.1µM*
O=S(=O)(c1ccccc1)c1cnn2c(C(F)(F)F)cc(-c3ccccc3)nc12,u
CCN(CC)C(=O)CNc1ccc(C(F)(F)F)cc1[N+](=O)[O-],-1%
CCOc1ccccc1NC(=O)C(OC(=O)c1ccccc1NS(=O)(=O)c1cccs1)c1ccccc1 (stereo unspecified),-15%

# This part in full, repeating the preview:
SMILES,HPGD block
Cc1c(C#N)c2ccccc2n1CC(=O)N1CCc2ccccc2C1,-15%
O=C(CCN1C(=O)/C(=C\c2cccs2)SC1=S)Nc1nccs1,-3%
CCCCn1c(SCC(=O)N2CCOCC2)nnc1-c1cccs1,-15%
O=c1[nH]c(SCc2cccc(F)c2)nc2c1CCCC2,7.1µM*
O=S(=O)(c1ccccc1)c1cnn2c(C(F)(F)F)cc(-c3ccccc3)nc12,u
CCN(CC)C(=O)CNc1ccc(C(F)(F)F)cc1[N+](=O)[O-],-1%
CCOc1ccccc1NC(=O)C(OC(=O)c1ccccc1NS(=O)(=O)c1cccs1)c1ccccc1 (stereo unspecified),-15%
Clc1ccccc1N1CCN(c2ncnc3nc[nH]c23)CC1,-2%
O=C(O)c1cc(-c2ccccc2)n(-c2ccccc2)n1,-4%
Cc1ccc(NC(=O)OCC(F)(F)C(F)F)cc1NC(=O)OCC(F)(F)C(F)F,-6%
CC(C)(CN1CCCCC1)NS(=O)(=O)c1ccc(Cl)cc1,-4%
O=C(COc1nc2ccccc2nc1N1CCOCC1)Nc1cccc(S(=O)(=O)N2CCCCC2)c1,-7%
CCC(C)NC(=O)CSc1ccc(Cl)cc1 (stereo unspecified),-17%
Nc1ccc(C(=O)OCc2nc3c(ccc4ccccc43)[nH]2)cc1,3%
CCOC(=O)CC(NS(=O)(=O)Cc1ccccc1)c1ccc(C)cc1 (stereo unspecified),5%
CCOC(=O)Cn1c(=NC(=O)CSC(C)=O)sc2ccccc21,-5%
Cn1c(CSCc2ccc(Cl)c(Cl)c2)n[nH]c1=S,-26%
Cc1nn(-c2ccccc2)c(Oc2ccccc2)c1C=O,-6%
O=C(O)CC12CSc3[nH]c(=O)sc3C1c1ccccc1OC2=O (stereo unspecified),u
Cc1ccc2[nH]c3c(c2c1)CN(C(=O)CN1CCN(c2ccccc2)CC1)CC3,-13%
COc1ccc(CCN(Cc2ccc(C(C)C)cc2)S(=O)(=O)c2ccc(S(=O)(=O)N(C)C)cc2)cc1OC,-4%
O=C(CN(C(=O)CNS(=O)(=O)c1ccccc1)c1ccc2c(c1)OCCO2)NC1CCCCC1,-14%
Nn1c(N2CCCCC2)nc2ccccc21,-4%
CCCc1nnc(SCC(=O)N2C(C)CCCC2C)n1CC1CCCO1 (stereo unspecified),-7%
CC1CCC2C(=O)N(c3ccc(NC4CCCCC4)c([N+](=O)[O-])c3)C(=O)C2C1 (stereo unspecified),-18%
CC(CCc1ccccc1)NC(=O)c1ccc(Cl)nc1 (stereo unspecified),-7%
O=c1cc(-c2cccc(-c3ccc(C(F)(F)F)cc3)c2)c2cc3c(cc2o1)OCO3,-12%
COc1ccc2c(c1)O[C@H](c1ccc3c(c1)OCO3)[C@@H](OC(=O)N[C@H](C)C1CCCCC1)C2=O,-6%&1%
O=C1C2C3C=CC(C3)C2C(=O)N1CNc1ccccn1 (stereo unspecified),-1%
O=C(Nc1ccc(F)cc1)c1cc(S(=O)(=O)Nc2ccc(F)cc2)cs1,-14%
CCn1c(-c2ccccc2)c[nH]c1=S,-28%
Cc1ccc(Cn2nnc3c(=O)[nH]c(C4CCN(S(=O)(=O)c5ccccc5)CC4)nc32)cc1,-27%
CC1(C)CC(=O)C=C(NCC2CCCO2)C1 (stereo unspecified),-14%
COc1cccc(/C=N/n2cnc3ccccc32)c1OC,-15%
Cc1ccc(NC(=O)C2C3CC4OC(=O)C2C4C3)cc1Cl (stereo unspecified),-18%
Cc1ccccc1Cn1c(C(=O)OC(C)C)cc2c1ccn2C,-22%
O=C(O)CCn1c(C(=O)O)cc2sccc21,1%
CCn1c(=O)c2c3c(sc2n(C)c1=O)CCC3,-5%
Cc1ccc(O)c(CCc2ccccc2)n1,u
COc1ncnc2c1sc1nc(-c3ccccc3)c3c(c12)CCCC3,-24%
COc1cccc(C(c2sc3ncnn3c2O)N2CC(C)OC(C)C2)c1 (stereo unspecified),-10%
CC(=O)OC1C[C@]2(C)[C@@H](CC(O)C3[C@]4(C)CCC(O)C(C)[C@@H]4CC[C@]32C)/C1=C(/CCC=C(C)C)C(=O)O (stereo partly specified),-4%
O=C(CSc1nc2ccccc2c(=O)n1Cc1ccco1)NCc1ccco1,-21%
O=C(Nc1ccccc1Cl)c1cccc(NS(=O)(=O)c2ccccc2)c1,-17%
COc1ccc2[nH]c(=O)c(CN(CC3CCCO3)C(=O)Nc3ccccc3)cc2c1 (stereo unspecified),u
CC1CCCCN1CCCNC(=O)C1CCN(c2nc3ccccc3o2)CC1 (stereo unspecified),-8%
C=CCc1cc(OC)ccc1OCCOCCC(C(=O)OCC)C(=O)OCC,-9%
Cn1c(=O)c2c(nc(OCc3cccnc3)n2Cc2c(F)cccc2Cl)n(C)c1=O,-11%
CCOC(=O)c1ccc(NC(=O)c2ccc(C)c(S(=O)(=O)N3CCOCC3)c2)cc1,-12%
COc1ccc(CCN2CN(S(=O)(=O)c3ccc(OC)cc3)c3nc4ccccc4nc32)cc1,-20%
COC(=O)C1=C(C)N(Cc2ccc(C)cc2)C(=O)C1,-2%
COc1ccc(/C=C2\CCCC3C2=NN(C(=O)COC(=O)CNC(=O)c2ccccc2)C3c2ccc(OC)cc2)cc1 (stereo unspecified),u
COc1ccc(N2C(=O)CC(N3CCN(c4ccccc4F)CC3)C2=O)cc1 (stereo unspecified),-4%
CC(C)(C)C(=O)Nc1nnc(SCC(=O)NCc2ccco2)s1,-5%
Cc1ccc(S(=O)(=O)/C(=C/Cl)NC(=O)c2ccccc2)cc1,-3%
O=C(NCc1ccc2c(c1)OCO2)c1ccc2c(c1)N(Cc1c(F)cccc1Cl)C(=O)CS2,-5%
CC(=O)Cc1ccccc1OCC(=O)O,-11%
CCOc1cc(-c2c(C#N)c(N)nc3c2CCCC3)ccc1O,u
CCOC(=O)c1sc(NCC2CCCO2)nc1C (stereo unspecified),13µM*
Cc1ccccc1Cn1cc(/C=N/n2cnnc2)c2ccccc21,-13%
# (more compounds)
SMILES,HPGD block
COc1cc(C(=O)Nc2nccs2)cc(OC)c1OC,-15%
CC(C)(C)c1cc(C(F)(F)F)c(C#N)c(=O)[nH]1,u
CCOc1c2ccc(C(=O)NCc3ccc(OC(F)(F)F)cc3)cc2nn1CC,u
Nc1c(C(=O)NC2CC2)sc2nc3c(c(-c4ccco4)c12)CC/C3=C/c1ccco1,16µM*
CNc1c(N=Cc2cccnc2)c(=O)n(C)c(=O)n1C,-10%
CC(NC(=S)N1CCOCC1)c1ccccc1 (stereo unspecified),-6%
CCC1=C2CC[C@H]3C(=O)N(c4ccccc4)C(=O)[C@H]3[C@H]2[C@@]2(C)C(=NCC(=O)OC)OC(=O)N2C1=O,-3%
CCC(NC(=O)NCCCn1ccnc1)(C(F)(F)F)C(F)(F)F,-6%
CCC(=O)c1ccc(OCC(O)CN2CCN(c3cccc(C(F)(F)F)c3)CC2)cc1 (stereo unspecified),-5%
COc1cccc(C(=O)Nc2nnc(-c3cccs3)s2)c1,u
COc1ccc(-n2c(=S)[nH]c3sc4c(c3c2=O)CCc2ccccc2-4)cc1,13µM*
COc1ccccc1N1CCN(C(=O)CSc2nc(N)cc(=O)[nH]2)CC1,-20%
Cc1cc(Oc2ccc3ccccc3c2)nc(SCC(=O)c2ccccc2)n1,-30%
COc1ccccc1CNC(=O)c1nn(-c2ccc(C)cc2)c(=O)c2c1c1ccccc1n2C,u
COC(=O)c1ccc(C(=S)N2CCOCC2)cc1,28µM*

# Quoted at random: two records from the list
SMILES,HPGD block
COc1ccccc1CNC(=O)c1nn(-c2ccc(C)cc2)c(=O)c2c1c1ccccc1n2C,u
CCC(NC(=O)NCCCn1ccnc1)(C(F)(F)F)C(F)(F)F,-6%

# Continued:
SMILES,HPGD block
Cc1ccc(NC(=O)CCc2ccc(S(=O)(=O)N3CCOCC3)cc2)c(C)c1,-9%
O=C(CSc1ncnc2c1cnn2CCc1ccccc1)Nc1ccc(F)cc1,0%
O=C(N[C@H]1CCCc2ccccc21)O[C@@H]1C(=O)c2cc(Br)ccc2O[C@H]1c1ccc2c(c1)OCO2,-10%
Cc1cccc(/N=C/c2c(O)cc(C)oc2=O)n1,-18%
CC1Cc2nc(SCC(=O)Nc3nccs3)n(C)c(=O)c2S1 (stereo unspecified),-12%
CN(C)CCNC(=O)c1ccccc1-c1ccccc1,2%
OC1(c2ccc(Br)cc2)CCNCC1,-3%
COc1cc(/C=C/C(=O)OCC(=O)Nc2ccc3c(c2)OCCO3)ccc1O,u
COCC(=O)N1CCC[C@@]2(CCN(Cc3cc(C(F)(F)F)cc(C(F)(F)F)c3)C2)C1,-5%
COc1cccc(CN(C)CC(=O)NNC(=O)c2ccc(Cl)cc2)c1,0%
COc1c2c(nc3occc13)C(CC=C(C)C)(OC)C(OC(C)=O)CC2 (stereo unspecified),5%
CCC1CCCCN1Cc1ccc(OC)c(C)c1 (stereo unspecified),1%
O=C(CN1CCN(c2ccc(Cl)cc2)CC1)c1ccc2c(c1)OCO2,-7%
COC(=O)C1(C)NC(c2cccs2)C2C(=O)N(c3ccccc3F)C(=O)C21 (stereo unspecified),-19%
CC(=O)c1ccsc1-c1c(C)cc2oc(=O)cc(-c3ccccc3)c2c1C,40µM*

# Among those listed so far, four contain a furan ring, fused or not:
SMILES,HPGD block
O=C(CSc1nc2ccccc2c(=O)n1Cc1ccco1)NCc1ccco1,-21%
CC(C)(C)C(=O)Nc1nnc(SCC(=O)NCc2ccco2)s1,-5%
Nc1c(C(=O)NC2CC2)sc2nc3c(c(-c4ccco4)c12)CC/C3=C/c1ccco1,16µM*
COc1c2c(nc3occc13)C(CC=C(C)C)(OC)C(OC(C)=O)CC2 (stereo unspecified),5%

# (list continues)
SMILES,HPGD block
Cc1ccc(-c2cc(C(F)(F)F)nn2-c2ccc(S(N)(=O)=O)cc2)cc1,-17%&-7%
CC1CC(C)CN(C(=S)Nc2ccc3nc4n(c(=O)c3c2)CCCCC4)C1 (stereo unspecified),u
CCSc1nnc(NC(=O)CSc2c(Cl)cccc2Cl)s1,-14%
COc1ccc(-n2c(Cc3cccn3C)nnc2SCC(=O)Nc2ccc(F)cc2)cc1,-11%
CCc1nnc(NC(=O)CSc2nnc(CNc3ccc(OC)cc3)n2C)s1,-9%
Cc1c(Cl)cccc1NC(CC(=O)c1ccccc1)C(=O)O (stereo unspecified),-16%
O=C(COC(=O)c1ccncc1)Nc1cc(Cl)ccc1Cl,-1%
CN(C)/C=C(\C#N)C(=O)c1cccnc1Oc1cccc(F)c1,-8%
Cc1oc2cc(OC(C)C(=O)O)ccc2c(=O)c1Oc1ccccc1 (stereo unspecified),-11%
O=C1CCCC(=O)C1=C1SCCCS1,-18%
C=CCn1c(SCC(=O)Nc2cc(NC(C)=O)ccc2OC)nnc1-c1cccnc1,-8%
S=C(Nc1ccc(Cl)cc1Cl)NC1CCCCC1,-10%
Cc1c(O)c(CN2CCCCC2)cc2c1oc(=O)c1ccccc12,-7%
CCOC(=O)N1CCN(C(=O)C2CCN(c3ncnc4c3sc3cccc(F)c34)CC2)CC1,u
COC(=O)c1ccccc1NC(=O)CN1CCC(NC(=O)c2ccccc2C)CC1,-4%
N#Cc1ccc(COC(=O)c2ccc3c(=O)[nH]c(CN4CCOCC4)nc3c2)cc1,-7%
CC(=O)NCC(=O)OCC(=O)c1ccc2ccccc2c1,u
CCN(CC)S(=O)(=O)c1ccc2[nH]cc(C(=O)NCCN3CCCCC3C)c(=O)c2c1 (stereo unspecified),u
Cc1cc(=O)[nH]c(SCc2nc3ncccn3c2Br)n1,u
CCC(=O)Nc1nc2ccc(NC(C)=O)cc2s1,-13%
O=C(COc1ccccc1)NCCc1nc2ccccc2[nH]1,-13%
CCOc1ccccc1NC(=O)C1CCN(S(=O)(=O)c2c(C)noc2C)CC1,-4%
CCCS(=O)(=O)c1c(S(=O)(=O)CCC)c2c3ccccc3ccn2c1C(=O)OC,u
Cc1cc(NC(=O)c2cc(C)on2)n(-c2ccccc2)n1,-17%
CC1CCCC(C)N1c1nnc(NC(=O)c2cc(-c3ccc(Br)cc3)on2)s1 (stereo unspecified),-25%
CCOC(Cn1c(-c2ccc(OC)cc2)nc2ccccc21)OCC,-13%
CC(=O)OCc1ccco1,-8%
NS(=O)(=O)c1ccc(NC(=S)N2CCN(c3ccc(Cl)c(Cl)c3)CC2)cc1,-7%
CCOC(=O)Nc1nc(-c2ccccc2)c(C)s1,-20%
CC(N)CCCC(C)(C)O (stereo unspecified),-4%
Cc1cc(C)cc(OCC(=O)Nc2ccc(N3CCN(C(=O)c4ccco4)CC3)cc2)c1,-11%
CCCCC[n+]1ccn(C2=C([O-])c3ccccc3C(=O)/C2=N\S(=O)(=O)c2ccccc2)c1,-11%
Cc1ccc(-c2nnc(SCc3nc(N)nc(Nc4ccccc4C)n3)n2N)cc1,u
O=[N+]([O-])c1ccc(N(c2ccccc2)c2ccccc2)cc1,-29%
O=[N+]([O-])c1cccc2ccc(/C=C/c3ccc(F)cc3)nc12,-9%
